B2AR ag = beta2AR agonists driving receptor internalization, primary screen, cell-based, FAP fluorogen, flow cytometry; Am2.2-beta2AR cells; reference of the scale not given here; response, % (test concentration not listed); hit rate 0.43% among 340,000; AID 504454, 2011;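 active = response above a set limit, near 3 SD of response in nonfluorescent compounds, cut at about 42% in these data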;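 note: stock transfer was 100 nL into about 11 µL; a reference agonist was the positive control; negative values mostly stem from fluorescent compounds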
Target sequence (P07550 whole entry, looked up): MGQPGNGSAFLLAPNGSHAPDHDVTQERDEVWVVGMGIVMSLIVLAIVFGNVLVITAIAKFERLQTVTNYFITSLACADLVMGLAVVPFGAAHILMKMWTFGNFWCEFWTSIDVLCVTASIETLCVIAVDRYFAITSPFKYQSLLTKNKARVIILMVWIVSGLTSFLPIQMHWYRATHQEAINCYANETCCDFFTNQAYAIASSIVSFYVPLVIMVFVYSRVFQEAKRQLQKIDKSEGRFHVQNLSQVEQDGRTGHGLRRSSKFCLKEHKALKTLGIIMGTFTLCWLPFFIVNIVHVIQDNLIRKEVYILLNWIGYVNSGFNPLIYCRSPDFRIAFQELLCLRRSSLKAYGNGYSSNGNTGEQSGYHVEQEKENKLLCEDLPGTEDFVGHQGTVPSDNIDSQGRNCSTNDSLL
Vif A3G = inhibitors of Vif binding to APOBEC3G peptide, primary screen, biochemical, TR-FRET, GST-Vif 1-94, biotin-A3G peptide, dose response retest (AID 1117319); hit rate 0.57% among 260,000; one-dose inhibition, %; IC50 in µM for titrated hits; TR-FRET GST-Vif / biotin-A3G peptide binding; higher % means a stronger effect; test concentration not given here; strong numbers were not always called active; Virion infectivity factor (Human immunodeficiency virus type 1 group M subtype B (isolate …;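 active = above the screen mean plus three standard deviations and confirmed in dose response; inconclusive = results disagree or hit not tested in dose response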;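 note: Vif residues 1-94 fused to GST binding biotinylated APOBEC3G peptide 110-148; 0% = full assay without inhibitor and 100% = GST in place of GST-Vif; retest series ran down from 100 µM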
LANA-H2A inh = blockers of LANA interaction with H2A/H2B – biochemical, FP readout, HTS, primary screen; cell-free LANA-H2A/H2B peptide, fluorescence polarization; Protein LANA1 (Human herpesvirus 8 type P (isolate GK18)), Q9QR71; inhibition, % (test concentration not listed); AID 2629, 2010; hit rate 0.6% among 320,000; in the data active = inhibition mostly above about 10%, no sharp cut-off; inactive = mostly below about 6.7%;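 note: stock transfer was 7.5 nL into about 10 µL; 0% = median of vehicle wells and 100% = median of positive control wells; one replicate is shown; the record names a cut of 25% in any replicate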
ALR inh = inhibitors of human ALR sulfhydryl oxidase, primary screen, biochemical, H2O2 detection, HRP-luminol luminescence, single point. AID 485317, 2010. purified ALR, DTT oxidation. inhibition, % (concentration not given with the values). FAD-linked sulfhydryl oxidase ALR (Homo sapiens), P55789. hit rate 3.8% among 290,000;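 active = mean and each replicate at 75% or more; inconclusive = only one of the two met; inactive = neither met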;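 note: stock transfer was 7.5 nL into about 7.5 µL; 0% = neutral wells and 100% = wells with inactivated enzyme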
Target sequence (P55789 whole entry, looked up): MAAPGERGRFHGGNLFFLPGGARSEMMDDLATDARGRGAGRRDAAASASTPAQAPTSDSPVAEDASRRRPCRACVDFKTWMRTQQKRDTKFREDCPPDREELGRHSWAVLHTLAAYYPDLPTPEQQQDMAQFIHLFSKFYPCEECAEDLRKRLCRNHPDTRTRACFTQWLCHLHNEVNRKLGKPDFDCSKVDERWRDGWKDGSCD
RanGTP-Imp inh = inhibitors of RanGTP-importin-beta interaction, primary screen, biochemical, FRET, CFP-Ran, YFP-importin-beta, homogeneous; Ran GTPase (GTP-bound) - importin-beta complex; cell-free CFP-Ran/YFP-importin-beta FRET ratio; inhibition, % (concentration not given with the values); hit rate 1.1% among 300,000; AID 2216, 2009;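 active = most replicates above 15%; inconclusive = exactly half above 15%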;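 note: 0% = DMSO wells and 100% = Ran loaded with GDP instead of GTP; wells of about 40 µL received 100 nL stock; the first replicate is given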
Calb FLC = C. albicans growth inhibition with fluconazole, primary screen, CaCi-2 strain, Alamar Blue fluorescence. C. albicans CaCi-2 (fluconazole-resistant clinical isolate) + fluconazole, 48 h. growth inhibition, % (concentration not given with the values). hit rate 0.57% among 300,000. AID 1979, 2009;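 active = most replicates above 75%; inconclusive = exactly half above 75%; inactive = most below 75%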;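 note: all wells also contain fluconazole at 8 µg/ml as a sub-toxic cotreatment; 0% = median of DMSO wells and 100% = median of geldanamycin control wells; wells of about 8 µL received 7.5 nL stock; the first replicate is given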
HNF4A DNA FP = change in binding of human HNF4A to DNA, primary screen, biochemical, fluorescence polarization, FITC-DNA. activity change, % at 10 µM. AID 1224865, 2016. hit rate 0.3% among 360,000. 1 h. Hepatocyte nuclear factor 4-alpha (Homo sapiens), P41235; in the data active = activity change above about 30%, passing the limit was not always enough;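 note: controls were the assay level and a saturating level of protein; the project sought stronger binding though the title names inhibitors; some compounds called inactive have numbers as strong as hits; positive values seem to mean higher polarization but the record does not say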
Target sequence (P41235 whole entry, looked up): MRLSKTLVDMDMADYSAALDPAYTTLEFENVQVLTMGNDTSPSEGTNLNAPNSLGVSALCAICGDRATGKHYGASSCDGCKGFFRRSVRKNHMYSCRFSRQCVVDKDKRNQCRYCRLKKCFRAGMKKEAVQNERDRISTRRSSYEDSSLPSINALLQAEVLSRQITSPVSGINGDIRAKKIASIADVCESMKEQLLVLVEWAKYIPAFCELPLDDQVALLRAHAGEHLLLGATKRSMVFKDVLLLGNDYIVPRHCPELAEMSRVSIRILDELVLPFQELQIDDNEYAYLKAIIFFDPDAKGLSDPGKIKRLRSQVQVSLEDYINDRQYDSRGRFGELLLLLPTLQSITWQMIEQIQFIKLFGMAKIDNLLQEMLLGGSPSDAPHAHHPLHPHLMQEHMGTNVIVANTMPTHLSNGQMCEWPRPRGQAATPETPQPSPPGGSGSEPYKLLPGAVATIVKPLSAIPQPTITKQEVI
Numbers without * were called inactive; ? = inconclusive; nt = not tested or not shown.

| SMILES | B2AR ag | Vif A3G | LANA-H2A inh | ALR inh | RanGTP-Imp inh | Calb FLC | HNF4A DNA FP |
| --- | --- | --- | --- | --- | --- | --- | --- |
| CC(C)COC(=O)NCC12C=CC(O1)C1C(=O)N(c3ccc(Cl)cc3)C(=O)C12 (centres undefined) | -2 | 1% | 0.3 | nt | -2.1 | 4 | -1.4 |
| Cc1nc2scc(C)n2c(=O)c1S(=O)(=O)NC(C)c1ccccc1 (centres undefined) | 0 | nt | -0.2 | 0 | 0.9 | -5 | 1.5 |
| Cc1ccc(C)c2nc(SCC(=O)NCc3cccs3)c(C#N)cc12 | -4 | 3% | 1.1 | -6 | -0.2 | -10 | -2.0 |
| O=C1CCCC2=C1C(c1ccncc1)c1c(nc(SCc3ccccc3Cl)[nH]c1=O)N2 (centres undefined) | 7 | 3% | 0.7 | -10 | nt | nt | 6.7 |
| C/C(=N\NC(=O)c1ccccc1)c1ccc(C)c([N+](=O)[O-])c1 | -11 | 2% | -1.8 | 0 | 3.9 | -9 | 2.4 |
| O=C(Nc1nnc(C2=COCCO2)o1)c1ccc(Br)cc1 | 2 | nt | 6.5 | 44 | -3.9 | -5 | -4.1 |
| Cn1cc(C(=O)N/N=C/C(Br)=C\c2ccccc2)ccc1=O | -5 | -6% | 0.5 | -5 | 4.1 | -1 | 0.5 |
| Cn1c(-c2cc(Cl)ccc2O)nc2c1c(=O)[nH]c(=O)n2Cc1ccccc1 | -15 | -2% | -1.5 | -5 | nt | 1 | 0.1 |
| COc1ccc(N2CCN(CC(=O)Nc3cc(C)cc(C)c3)CC2)cc1 | 11 | nt | -0.7 | nt | 1.6 | 10 | 4.2 |
| COc1ccc(NC2CCCN(C(=O)CCN3CCCO3)C2)cc1 (centres undefined) | 5 | nt | -2.3 | 96* | -1.2 | 6 | 0.9 |
| Cc1sc2nc(CN3CCCCC3)nc(N3CCN(C(=O)c4ccco4)CC3)c2c1C | -7 | 0% | 1.0 | 6 | ? | -28 | -1.4 |
| Cc1ccc(NC(=O)C2CCN(S(=O)(=O)c3ccc4[nH]c(=O)ccc4c3)CC2)c(C)c1 | -1 | nt | -0.3 | 9 | -0.9 | 1 | 5.5 |
| CCOc1ccc(-c2nnc(-c3ccc(OC)cc3)o2)cc1 | 11 | 0% | 0.9 | -4 | -0.6 | 12 | -0.9 |
| CC(C(=O)c1ccccc1)C(O)c1ccccn1 (centres undefined) | -5 | -4% | nt | nt | nt | nt | 1.9 |
| O=C(O)c1cccnc1Sc1ccc(Cl)cc1 | 5 | nt | 1.9 | 48 | -3.5 | -13 | -4.4 |
| O=C(NCc1ccccc1)/C(=C\c1ccc(O)cc1)NC(=O)c1ccco1 | -2 | nt | 10 | 97* | -2.5 | 1 | -3.4 |
| O=[N+]([O-])c1ccccc1S(=O)(=O)N1CCN(c2ccc(F)cc2)CC1 | 0 | nt | -25 | 34 | 5.8 | -4 | -0.7 |
| Cc1cccc(OCC(O)Cn2c(N3CCCCC3)nc3c2c(=O)n(C)c(=O)n3C)c1 (centres undefined) | 8 | -1% | 4.6 | -7 | 0.4 | 4 | 5.1 |
| COC(C[C@H](O)[C@@H](C)[C@H](O)COCc1ccccc1)OC | 6 | -12% | nt | nt | nt | nt | 7.3 |
| Cc1ccc(C(=O)N2CCN(C)CC2)cc1S(=O)(=O)N1CCCCCC1 | -7 | nt | 2.6 | 2 | 0.7 | -6 | -0.5 |

Gathered by group: those above with a Cl atom (four)
| SMILES | B2AR ag | Vif A3G | LANA-H2A inh | ALR inh | RanGTP-Imp inh | Calb FLC | HNF4A DNA FP |
| --- | --- | --- | --- | --- | --- | --- | --- |
| CC(C)COC(=O)NCC12C=CC(O1)C1C(=O)N(c3ccc(Cl)cc3)C(=O)C12 (centres undefined) | -2 | 1% | 0.3 | nt | -2.1 | 4 | -1.4 |
| O=C1CCCC2=C1C(c1ccncc1)c1c(nc(SCc3ccccc3Cl)[nH]c1=O)N2 (centres undefined) | 7 | 3% | 0.7 | -10 | nt | nt | 6.7 |
| Cn1c(-c2cc(Cl)ccc2O)nc2c1c(=O)[nH]c(=O)n2Cc1ccccc1 | -15 | -2% | -1.5 | -5 | nt | 1 | 0.1 |
| O=C(O)c1cccnc1Sc1ccc(Cl)cc1 | 5 | nt | 1.9 | 48 | -3.5 | -13 | -4.4 |

Next results:
| SMILES | B2AR ag | Vif A3G | LANA-H2A inh | ALR inh | RanGTP-Imp inh | Calb FLC | HNF4A DNA FP |
| --- | --- | --- | --- | --- | --- | --- | --- |
| COc1ccccc1N(Cc1ccccc1)S(=O)(=O)c1cccc(C(=O)Nc2ccccn2)c1 | 4 | nt | -4.0 | -1 | -5.1 | 1 | -2.1 |
| CCOCCCNC(=O)C1CCC(CNS(=O)(=O)c2ccc(OC)cc2)CC1 (centres undefined) | 4 | -19% | -6.5 | nt | 2.0 | -16 | -0.1 |
| COc1ccccc1-c1ocnc1C(=O)Nc1ccc(N2CCOCC2)cc1N1CCOCC1 | -1 | 2% | nt | nt | 3.1 | 6 | 1.8 |
| CC(C)Sc1nc2c(c(=O)[nH]c(=O)n2C)n1CCc1ccccc1 | -3 | 2% | 1.4 | -17 | -0.6 | -25 | -0.8 |
| COc1ccccc1C(=O)Oc1cc(C)[nH]c(=O)c1[N+](=O)[O-] | 2 | nt | -2.1 | -1 | -1.1 | ? | -2.0 |
| CCOC(=O)C1(CC2CCCCO2)CCN(Cc2nc(-c3cccs3)oc2C)CC1 (centres undefined) | 3 | 17% | 4.3 | -5 | 8.0 | 57 | 0.5 |
| CCn1nc(NC(=O)c2cccnc2)c2cc3ccccc3nc21 | -6 | 0% | -2.4 | -7 | 19* | 10 | 0.3 |
| Cc1ccc(Oc2c(C=O)c3ccccc3n2C)cc1 | -2 | ? | -4.5 | 6 | nt | nt | 0.1 |
| CC(C)C(c1nnnn1C1CCCC1)N1CCCc2ccccc21 (centres undefined) | 7 | ? | 1.1 | 25 | 0.8 | 47 | -0.8 |
| O=C(O)c1ccc(S(=O)(=O)N(Cc2ccc(F)cc2)C2CCCCC2)cc1 | 12 | nt | -0.1 | nt | -0.7 | 10 | -1.6 |
| COc1cc(OC)c(OC)cc1/C=N/NC(=S)NCC1CCCO1 (centres undefined) | 3 | 6% | 2.9 | -1 | -3.2 | 3 | -3.1 |
| COc1cccc(OC)c1C(=O)N1CCOCC1 | 4 | 22% | -13 | nt | 2.7 | 4 | 34* |
| NS(=O)(=O)c1ccc(NC(=O)COC(=O)c2cc3ccccc3cc2O)cc1 | 2 | nt | 9.7 | -6 | -0.3 | 22 | 0.9 |
| CCOc1cc(C(=S)N2CCOCC2)ccc1OS(=O)(=O)c1ccc(Br)cc1 | -2 | -5% | -3.8 | -20 | -3.3 | 4 | -3.9 |
| CCCc1cc(=O)n2[nH]c(-c3ccccc3)cc2n1 | 4 | 25% | 1.6 | 2 | 0.8 | -18 | 3.3 |
| O=C(Nc1ccc(N2CCN(C(=O)c3ccco3)CC2)cc1)c1ccc([N+](=O)[O-])cc1Cl | -6 | nt | -5.9 | 0 | -0.8 | 1 | 1.4 |
| COc1ccc(N(CC(=O)NN=C2CCCCCCC2)S(=O)(=O)c2ccccc2)cc1 | 7 | -6% | 0.8 | 6 | 2.0 | -15 | -1.1 |
| O=C(Nc1ccc(COc2ccccc2)cc1)Oc1ccccc1N1CCOCC1 | -5 | 83% | 3.0 | 2 | -1.3 | -4 | -1.5 |
| COc1ccc(C(N)c2nccc3cc(OC)c(OC)cc23)cc1OC (centres undefined) | 12 | 4% | -4.3 | -30 | 8.3 | 12 | 2.4 |
| CCc1noc(C)c1C(=O)N(C)CC(=O)Nc1ccc(Br)cc1C | -4 | 1% | -1.5 | 14 | 1.5 | -8 | 2.7 |
| Cc1ccc(S(=O)(=O)N(Cc2cc3ccc(C)cc3[nH]c2=O)c2ccccc2)cc1 | -1 | -36% | -1.1 | -2 | 1.9 | -6 | -0.8 |
| O=C1CC(N2CCN(S(=O)(=O)c3ccc(Cl)cc3)CC2)C(=O)N1CCc1ccccc1 (centres undefined) | 3 | 27% | -7.3 | -11 | 9.6 | 9 | -1.0 |
| CCOc1cccc2sc(=NC(=O)c3ccc(S(=O)(=O)N4CCOCC4)cc3)n(C)c12 | -10 | -4% | -3.7 | -2 | 1.2 | -6 | 3.8 |
| COc1ccc(Cl)cc1-c1nc(SCC(=O)NC(C)C)n[nH]1 | -12 | -40% | 1.4 | 1 | 2.6 | -8 | -0.2 |
| COc1ccccc1NC(=O)Nc1nc2ccc(S(N)(=O)=O)cc2s1 | 6 | nt | -1.2 | -2 | 8.6 | 14 | 34 |
| CCOc1ccccc1C(=O)N[C@H](C(=O)OCC(=O)Nc1nnc(-c2ccccc2)o1)C(C)C | 0 | -1% | nt | nt | nt | nt | -0.5 |
| O=C(NCCN1CCCCCC1)C1CCN(S(=O)(=O)N2CCOCC2)CC1 | 1 | 2% | 0.2 | -6 | 4.3 | 9 | 1.1 |
| COC(=O)c1cc(C(=O)OCC(=O)c2ccc3c(c2)NC(=O)CO3)cc([N+](=O)[O-])c1 | 14 | -5% | nt | nt | nt | nt | 5.6 |
| CN(C)NC(=S)Nc1ccc(S(=O)(=O)N2CCCCC2)cc1 | 8 | -7% | 5.1 | 71 | -0.1 | -6 | 1.7 |
| N#CCCN(C(=O)COC(=O)c1cccc(S(=O)(=O)Nc2ccc([N+](=O)[O-])cc2)c1)c1ccccc1 | 7 | 15% | 5.7 | -2 | 4.5 | 2 | 0.3 |
| CCOC(=O)C1CCN(C(=O)c2ccc3c(SCC(=O)O)c4c(nc3c2)CCCC4)CC1 | 1 | -9% | 0.3 | 51 | 0.6 | -2 | -2.4 |
| CCc1nc(N)nc2c1C(=O)CC(C)(C)C2 | 8 | 5% | -2.3 | -1 | 2.5 | -9 | -1.2 |
| Cc1nc(CS(=O)(=O)c2ccccc2)cc(N2CCOCC2)n1 | -3 | ? | -2.4 | -7 | -0.4 | 3 | 0.0 |
| CCc1ccc(-c2nc(CS(=O)CC(=O)NCc3ccc4c(c3)OCO4)c(C)o2)cc1 (centres undefined) | 3 | nt | -4.0 | 99* | -2.2 | -2 | -2.7 |
| C[C@H](CO)N1C[C@H](C)[C@H](CN(C)C)Oc2ccc(NS(=O)(=O)c3ccc(F)cc3)cc2CC1=O | 3 | nt | 2.0 | 2 | nt | nt | 1.6 |
| O=c1cc(C(F)(F)F)c2sc(N3CCCCC3)nc2[nH]1 | 5 | -1% | -2.8 | 12 | 9.0 | 14 | -3.1 |
| CC(=O)c1sccc1NC(=O)CC(C)(C)CC(=O)O | -2 | 3% | 1.7 | 0 | 0.5 | -1 | 4.9 |
| CCOC(=O)CN(C(=O)CSc1nnc(COc2ccc(OC)cc2)n1CC)c1ccccc1 | -16 | 79% | 5.6 | -6 | 0.5 | -9 | -1.0 |
| CC(=O)Nc1ccc(NC(=O)COc2cc(C)cc3oc(=O)cc(C)c23)cc1 | 5 | nt | -1.5 | 2 | -1.4 | -5 | -2.2 |
| CC(=O)c1ccc(NC(=O)NNS(=O)(=O)c2ccc([N+](=O)[O-])cc2)cc1 | 7 | -1% | 9.4 | -9 | 1.6 | 0 | -1.9 |
| CCc1cc(C(=O)N2CCCC(CCC(=O)N3CCN(c4ccccn4)CC3)C2)no1 (centres undefined) | 3 | nt | 5.5 | -3 | -2.0 | -3 | 6.1 |
